High-throughput results: PubChem BioAssay, National Center for Advancing Translational Sciences (NCATS)
Marburg entry inh: Marburg virus entry inhibition; 1.8% of 300,000 active; Potency, µM (highest dose often 37.8 µM), for the others: top-dose activity change, negative = inhibition, most hits filed as inhibitors; Marburg virus pseudotyped entry inhibition, cell reporter; control for the full effect not named in the record; about a third of the inactives were read at about 46 µM; active = well fitted inhibition curve with a large enough effect; inconclusive = small, poorly fitted or top-dose-only effect, or effect the other way; inactive = flat fitted curve, though single readings scatter; tested in HEK293 cells; about a fifth of its hits are not listed in these tables; also: % is scaled to controls: 0 for no effect and ±100 for the full control effect; luciferase read-out
RE007 growth inh: less growth of the S. pombe RE007 Vpr strain; Potency, µM (highest dose often 92.2 µM), for inactives: at the highest dose activity change, negative = less growth; S. pombe RE007 Vpr strain, BacTiter-Glo ATP luminescence, 24 h; control for the full effect not named in the record; 0.21% of 360,000 active; active = well fitted falling curve with a large enough effect; inconclusive = small, poorly fitted or top-dose-only effect; inactive = no such curve, though single readings can be large or run the other way;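 also: % is scaled to controls: 0 for no effect and ±100 for the full control effect; nearly all actives have a fitted effect of over 50% in size; the assay follows cell death caused by Vpr and the record does not say whether a fall means rescue or toxicity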
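Fission yeast strain RE007, carrying one chromosomally integrated HIV-1 vpr copy, was seeded at OD 0.01 in PMG+AL medium with 23 nL pinned compound. After 24 h at 30 °C and 99% humidity, viability was read by BacTiter-Glo luminescence.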
NS1 function inh: inhibitors of influenza NS1 protein function | S. cerevisiae slowed by influenza A NS1, growth recovery by OD600 | Potency, µM (doses to about 46.1 µM), without a hit: at the top dose activity, positive = more growth | 0.4% of 270,000 active | AID 2326; also: actives are rising curves; nearly all actives have a fitted effect of over 50% in size
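In this qHTS, NS1 from influenza A is expressed in budding yeast, where it slows growth. Cells are switched from glucose to 2% galactose medium (pH 6.0, -URA), treated with compound, and growth recovery is read at OD600.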
Cruzain Triton: blocks cruzain activity in presence of Triton detergent; purified cruzain, Z-FR-AMC fluorescence, 0.01% Triton; Potency, µM, for inactives: max response, negative = inhibition, usual class: inhibitors; 0.43% of 200,000 active; active = well fitted curve in the direction sought with a large enough effect; inconclusive = small, poorly fitted or top-dose-only effect, or another doubt; inactive = no such curve, though single readings can be large; an effect the other way counts as inactive or inconclusive;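 also: plate controls were neutral wells for no effect and buffer without enzyme for full effect; nearly all actives have a fitted effect of over 40% in size; top concentration of the series not given in the record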
Target sequence (P25779 123-467 limits assumed): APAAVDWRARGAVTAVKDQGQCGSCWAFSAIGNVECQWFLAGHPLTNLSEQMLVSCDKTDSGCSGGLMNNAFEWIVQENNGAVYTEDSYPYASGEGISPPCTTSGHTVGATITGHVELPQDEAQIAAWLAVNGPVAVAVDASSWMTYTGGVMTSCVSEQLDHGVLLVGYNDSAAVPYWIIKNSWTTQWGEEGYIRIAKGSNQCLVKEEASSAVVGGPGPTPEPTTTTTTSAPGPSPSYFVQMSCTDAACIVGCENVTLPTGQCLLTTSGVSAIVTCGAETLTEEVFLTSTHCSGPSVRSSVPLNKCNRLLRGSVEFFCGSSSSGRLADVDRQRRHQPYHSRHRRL
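Sodium acetate buffer (100 mM, pH 5.5) containing 5 mM DTT and 0.01% Triton X-100 hosted 1.5 nM cruzain and test compound for 15 min at room temperature. Cleavage of 2 uM Z-FR-AMC was then tracked by fluorescence.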
Cruzain inh noDet: inhibitors of Trypanosoma cruzi cruzain without detergent; Potency, µM, for the others: max response, negative = inhibition, usual class: inhibitors; purified cruzain, Z-FR-AMC fluorescence, no detergent; P25779; 2.3% of 200,000 active; active = well fitted curve in the direction sought with a large enough effect; inconclusive = small, poorly fitted or top-dose-only effect, or another doubt; inactive = no such curve, though single readings can be large; an effect the other way counts as inactive or inconclusive;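 also: plate controls were enzyme without inhibitor for no effect and buffer without enzyme for full effect; nearly all actives have a fitted effect of over 40% in size; top concentration of the series not given in the record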
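Purified cruzain at 1.5 nM, pre-incubated 15 min with compound at room temperature in 100 mM sodium acetate pH 5.5, 5 mM DTT, 0.00005% Triton X-100. Reaction started with 2 uM Z-FR-AMC; AMC fluorescence increase over 60 s gives rate.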
StopGo reporter: FMDV 2A StopGo reporter, luciferase signal; 1.2% of 410,000 active; human cells with a luciferase reporter of 2A StopGo recoding; control for the full effect not named in the record; Potency, µM (series often up to 57.9 µM), inactives show at the top dose signal change, negative = less light; active = well fitted falling curve with a large enough effect; inconclusive = small, poorly fitted or top-dose-only effect; inactive = no such curve, though single readings can be large or run the other way; tested in HEK293T cells; also: % is scaled to controls: 0 for no effect and ±100 for the full control effect; nearly all actives have a fitted effect of over 45% in size; luciferase light after 4 h
SARS PLpro yeast: inhibitors of SARS-CoV papain-like protease in yeast; S. cerevisiae expressing SARS-CoV PLpro, growth rescue; control for the full effect not named in the record; Potency, µM (doses to about 32.9 µM), without a hit: at the highest dose activity, positive = growth rescue; 0.19% of 330,000 active; also: 0% is about no effect; nearly all actives have a fitted effect of over 55% in size; growth read by luminescence after 48 h
LASV entry inh: Lassa virus entry inhibition. 1.2% of 300,000 active. Lassa virus pseudotype entry inhibition, cell reporter; control for the full effect not named in the record. Potency, µM (series often up to 37.9 µM), for inactives: top-dose activity change, negative = inhibition, most hits filed as inhibitors; active means well fitted inhibition curve with a large enough effect; inconclusive means small, poorly fitted or top-dose-only effect, or effect the other way; inactive means flat fitted curve, though single readings scatter; tested in HEK293 cells; also: % is scaled to controls: 0 for no effect and ±100 for the full control effect; nearly all actives have a fitted effect of over 50% in size; luciferase read-out
* hit, by the source's call; ? = inconclusive; · = not tested or not shown; [ ] = another dose, or the depositor's remark. Unless noted, calls follow the shape of the dose curve; as a rule, active means well fitted rising curve with a large enough effect; inconclusive means small, poorly fitted or top-dose-only effect; inactive means no such curve, though single readings can be large or run the other way. Potency is read from the fitted curve at half-maximal effect.

SMILES	Marburg entry inh	RE007 growth inh	NS1 function inh	Cruzain Triton	Cruzain inh noDet	StopGo reporter	SARS PLpro yeast	LASV entry inh
CCN(CC)C(=S)Nc1ccc2nc3n(c(=O)c2c1)CCCCC3	-2%	4%	·	·	·	0%	-5%	1%
Cc1ccc(CNC(=O)CCSCc2ccccc2C)cc1	·	-13%	-5%	·	·	-2%	-1%	·
CC(C)Oc1ccc(C2CC(=O)NC3=C2C(=O)CCC3)cc1 (centres undefined)	12%	10%	1%	1.9%	2%	0%	20%	0%
COc1ccccc1CNC(=O)c1ccc(-c2nc(CS(=O)(=O)c3ccc(C)cc3)c(C)o2)cc1	·	·	·	-13%	-25%	-21%	·	-25%[46.1 µM]
CCOC(=O)c1c(NC(C)=O)sc2c1C1CCN2CC1	-19%	4%	·	·	·	5%	·	0%
CCCCOc1nc2ccccc2nc1C(C#N)C(=O)NC1CCCCC1 (centres undefined)	16%	-7%	-3%	-3.7%	-12%	0%	2%	6%
CS(=O)(=O)c1[nH]nc(-c2ccccc2Cl)c1C#N	28%[46.1 µM]	-1%	1%	·	·	13%	3%	0%[46.1 µM]
Cc1ccc(S(=O)(=O)NCCC(=O)Nc2ccc3c(c2)OCO3)cc1	?	-6%	9%	-4.5%	-12%	28%	15%	2%
Cc1ccc(S(=O)(=O)NCC(=O)N(CC(=O)NCC2CCCO2)Cc2ccc(Cl)cc2)cc1 (centres undefined)	-13%[46.1 µM]	3%	-12%	·	·	9%	2%	8%[46.1 µM]
Cc1noc(C)c1C(=O)OCC(=O)Nc1ccc(C(N)=O)cc1	22%[46.1 µM]	-12%	·	·	·	6%	1%	3%
CCCCCNc1nc(N2CCCC2)c2c(c1C#N)CCN(C)C2	?	-25%	1%	-1.2%	-6%	0%	-4%	?
Cc1cc(=O)[nH]c2c1c(=O)[nH]n2C1CC(C)N(C)CC1C (centres undefined)	13%[46.1 µM]	3%	1%	3.4%	1%	-9%	12%	4%
COc1cccc(NC(=O)CN2C(=O)C3(SCC(=O)N3c3cc(C)cc(C)c3)c3ccccc32)c1 (centres undefined)	·	·	·	-7.6%	?	-20%	·	0%[46.1 µM]
Cc1noc(NS(=O)(=O)c2ccc(NC(=O)CC34CC5CC(CC(Br)(C5)C3)C4)cc2)c1C	15%	-5%	-20%	-4.0%	?	4%	-2%	7%
CCOC(=O)C1(S(=O)(=O)c2ccccc2)CCN(Cc2ccccc2)CC1	-26%	5%	0%	2.3%	-2%	-11%	1%	-16%
C=CCN(CC=C)S(=O)(=O)c1ccc(NC(=O)COc2ccccc2OC)cc1	-30%	-11%	-12%	-6.9%	-2%	-24%	-42%	-16%
S=C(NCc1ccccc1)N1CCN(c2cccc(Cl)c2)CC1	-24%[46.1 µM]	8%	·	·	·	-25%	-20%	·
CCOC(=O)C1(Cc2ccccc2C)CCCN(S(=O)(=O)c2cccnc2)C1 (centres undefined)	?	4%	-6%	·	·	-23%	-4%	-16%
CCCOc1ccc(C(C)=O)cc1CN1CCOCC1	8%	9%	7%	-0.5%	-2%	-17%	2%	-1%
CCOCCCNC(=O)N[C@@H](Cc1ccccc1)C(=O)OC	12%	3%	2%	-2.7%	5%	14%	3%	15%

Whole records, looked up by structure:
`COc1cccc(NC(=O)CN2C(=O)C3(SCC(=O)N3c3cc(C)cc(C)c3)c3ccccc32)c1` (centres undefined) in the list: Marburg entry inh = ·; RE007 growth inh = ·; NS1 function inh = ·; Cruzain Triton = -7.6%; Cruzain inh noDet = ?; StopGo reporter = -20%; SARS PLpro yeast = ·; LASV entry inh = 0%[46.1 µM]
`CCOC(=O)c1c(NC(C)=O)sc2c1C1CCN2CC1` in the list: Marburg entry inh = -19%; RE007 growth inh = 4%; NS1 function inh = ·; Cruzain Triton = ·; Cruzain inh noDet = ·; StopGo reporter = 5%; SARS PLpro yeast = ·; LASV entry inh = 0%
`Cc1ccc(S(=O)(=O)NCCC(=O)Nc2ccc3c(c2)OCO3)cc1` in the list: Marburg entry inh = ?; RE007 growth inh = -6%; NS1 function inh = 9%; Cruzain Triton = -4.5%; Cruzain inh noDet = -12%; StopGo reporter = 28%; SARS PLpro yeast = 15%; LASV entry inh = 2%

Next compounds follow.
SMILES	Marburg entry inh	RE007 growth inh	NS1 function inh	Cruzain Triton	Cruzain inh noDet	StopGo reporter	SARS PLpro yeast	LASV entry inh
CCOc1c(C)cnc2c1c(=O)n(Cc1c(F)cccc1Cl)c(=O)n2C	·	11%	-14%	·	·	-8%	-10%	·
COc1ccc(NC(=S)N2CCN(Cc3ccccc3)CC2)cc1	-7%[46.1 µM]	1%	·	·	·	13%	1%	-17%
Cc1cc(C)c(Cn2c(=O)n(CCCCC(=O)NCc3ccccc3Cl)c(=O)c3ccccc32)c(C)c1	-4%[46.1 µM]	·	·	-1.5%	-6%	-1%	·	7%[46.1 µM]
O=C(CNC(=S)N(Cc1ccccc1)Cc1ccccc1F)NCc1ccc(Cl)cc1	?	-12%	·	·	·	-6%	-8%	?
C[C@H]1CC[C@H]2NCCN[C@H]2C1	3%[46.1 µM]	8%	4%	·	·	-8%	0%	14%
Cc1cc(C)nc(/N=C(\N)Nc2ccc(CC(=O)OC(C)C)cc2)n1	?	-5%	-15%	·	·	-1%	5%	7%[46.1 µM]
Cc1ccc(S(=O)(=O)N2CCOCC2)cc1NC(=O)c1cccc(S(=O)(=O)N2CCCC2)c1	·	6%	-3%	·	·	0%	0%	·
Cc1ccc2oc(=O)c3cc(C(=O)Nc4cccc(C#N)c4)sc3c2c1	2%[46.1 µM]	·	·	2.9%	0%	0%	·	-5%[46.1 µM]
COC(=O)C(Cc1ccc(O)cc1)NC(=O)c1ccccc1 (centres undefined)	23%	12%	0%	2.5%	-9%	49%[activator]	-1%	?
O=C(Oc1ccccc1)N1CCN(c2ccccc2F)CC1	?	2%	-35%	·	·	7%	-1%	23%
COc1ccc(CCN2CCC(CNC(=O)c3cnn(-c4ccccc4)c3C3CCN(C(=O)OC(C)(C)C)CC3)CC2)cc1	·	·	·	-0.5%	6%	-15%	·	?
OC(COc1cccc2ccccc12)CN1CCCC1 (centres undefined)	?	0%	10%	0.6%	0%	-23%	2%	6%
Cc1n[nH]c(C)c1CCC(=O)N/N=C/c1cccc([N+](=O)[O-])c1	-7%[46.1 µM]	·	·	·	·	-3%	1%	-2%[46.1 µM]
Oc1ccc(C2C(c3ccccc3)=NN=C(c3ccccc3F)N2O)c(O)c1 (centres undefined)	?	16%	6%	2.5%	3%	9%	21%	?
Cc1ccc(C(=O)NC(C(=O)NC2CCCC2)c2ccccc2)cc1 (centres undefined)	-1%[46.1 µM]	5%	17%	·	·	-2%	-3%	-8%[46.1 µM]
O=C(NCCCN1CCCC1=O)Nc1ccc(F)c(Cl)c1	3%	-12%	2%	-4.4%	6%	0%	-2%	22%
CCC1(C)Cc2ccccc2-c2nc(-c3ccccc3)oc(=O)c21 (centres undefined)	-30%	10%	0%	0.9%	-22%	-27%	-3%	-4%
CC(=O)Nc1ccc(C(=O)NNC(=O)c2ccc(Cl)cc2Cl)cc1	·	2%	7%	·	·	-12%	6%	·
O=C(COC(=O)c1n[nH]c2ccccc12)Nc1ccc([N+](=O)[O-])cc1	20%	3%	?	-5.7%	10µM*	25%	-9%	?
O=[N+]([O-])c1ccc(S(=O)(=O)NCCc2cn3ccccc3n2)cc1	10%	-3%	9%	-0.2%	3%	-23%	-1%	15%
Cc1cc(S(=O)(=O)Nc2ccc3oc4c(c3c2)CCCC4)ccc1Cl	0%[46.1 µM]	·	·	-3.2%	-18%	10%	·	0%[46.1 µM]
Cc1ccccc1N1C(=O)NC(=O)/C(=C\c2ccc3c(c2)CCCN3Cc2ccccc2)C1=O	-18%	7%	?	-13%	25%	?	3%	?
CC1Cc2cc(/C(O)=C3/C(=O)C(=O)N(CCCn4ccnc4)C3c3ccco3)ccc2O1 (centres undefined)	?	-20%	0%	-2.0%	5%	15%	7%	13%
CCN(CC)S(=O)(=O)c1cccc2cc(C(=O)O)c(O)cc12	14%	-2%	11%	-0.2%	-5%	-6%	10%	6%
Cc1ccc(NC(=O)C2CCN(S(=O)(=O)c3cc(-c4noc(C)n4)ccc3C)CC2)c(C)c1	·	·	·	0.4%	4%	?	·	?
C=CCNC(=S)NNC(=O)C(CCCC)CC(C)(C)O (centres undefined)	?	12%	-3%	-0.8%	-12%	6%	-1%	-20%
COc1ccc(C(=O)O)cc1S(=O)(=O)NC(C)C	·	-9%	-1%	·	·	-12%	1%	·
O=C(Nc1cccc(-c2cccc(Cl)c2)c1)C1CCN(C2CCC2)CC1	·	6%	-6%	·	·	-7%	0%	·
O=C(Nc1ccccn1)Nc1cccs1	?	-30%	-69%	-12%	-9%	·	5%	13%
COc1ccc(C=CC(=O)c2cc(O)ccc2O)cc1	1%[46.1 µM]	-7%	·	·	·	25%	·	?
O=c1oc(-c2ccccc2)nc2sc3c(c12)CCCC3	?	9%	3%	0.9%	-10%	·	-4%	?
O=C(c1c[nH]c2ccccc12)N1CCN(c2ccccc2)CC1	1%[46.1 µM]	12%	-7%	·	·	-1%	-3%	-8%[46.1 µM]
O=C(Oc1ccc([N+](=O)[O-])cc1)c1ccc(Cl)c(S(=O)(=O)N2CCCCC2)c1	·	·	-3%	-2.2%	?	·	-15%	·
Cc1ccc2cc3cc(C(=O)N(C)c4ccccc4C)oc3nc2c1	?	·	·	-11%	2%	0%	·	-13%[46.1 µM]
Cc1cc(C)c(S(=O)(=O)N2CCC(C(=O)NCc3ccc(Cl)cc3Cl)CC2)c(C)c1	?	17%	-135%	-3.0%	-9%	-20%	-23%	?
C/C(=N/NC(=O)c1cccnc1)C1=C(O)CC(C)(C)CC1=O	-11%	18%	·	·	·	1%	-2%	3%[46.1 µM]
